Sfp PPTase inh = blocks B. subtilis Sfp PPTase activity; Q9F4F7; Biochemical Sfp PPTase activity, qHTS; Potency, µM, inactives show max response, negative = inhibition, usual class: inhibitors; 310,000 tested, 3.5% active; active means well fitted inhibition curve with a large enough effect; inconclusive means small, poorly fitted or top-dose-only effect, or another doubt; inactive means no such curve, though single readings can be large or run the other way;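 further: the enzyme is Sfp with the accession as filed and its product quenches rhodamine fluorescence; potency means the concentration at half of the fitted maximal effect; 0% = enzyme reaction without inhibitor and -100% = no enzyme wells; top concentration of the series not given in the record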
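Fluorescence-quenching assay: 15 nM Sfp-PPTase preincubated 15 min at room temperature with compound, then 5 uM rhodamine-CoA and 12.5 uM BHQ-2-labelled YbbR peptide added. Fluorescence (ex 525/em 598 nm) read at start and after 30 min; difference gives rate.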
TRPV1 PAM = enhances activation of the human vanilloid receptor TRPV1 | TRPV1-expressing cells, Fluo-8 calcium influx, capsaicin EC20 potentiation; host cell line not named in the record; control for the full effect not named in the record | potentiation, % at 8.33 µM | 320,000 tested, 0.02% active; active means potentiation above 80%; inconclusive means 30% to 80%; inactive means below 30%; further: 0% is about no effect
Target sequence (Q8NER1 whole entry, looked up): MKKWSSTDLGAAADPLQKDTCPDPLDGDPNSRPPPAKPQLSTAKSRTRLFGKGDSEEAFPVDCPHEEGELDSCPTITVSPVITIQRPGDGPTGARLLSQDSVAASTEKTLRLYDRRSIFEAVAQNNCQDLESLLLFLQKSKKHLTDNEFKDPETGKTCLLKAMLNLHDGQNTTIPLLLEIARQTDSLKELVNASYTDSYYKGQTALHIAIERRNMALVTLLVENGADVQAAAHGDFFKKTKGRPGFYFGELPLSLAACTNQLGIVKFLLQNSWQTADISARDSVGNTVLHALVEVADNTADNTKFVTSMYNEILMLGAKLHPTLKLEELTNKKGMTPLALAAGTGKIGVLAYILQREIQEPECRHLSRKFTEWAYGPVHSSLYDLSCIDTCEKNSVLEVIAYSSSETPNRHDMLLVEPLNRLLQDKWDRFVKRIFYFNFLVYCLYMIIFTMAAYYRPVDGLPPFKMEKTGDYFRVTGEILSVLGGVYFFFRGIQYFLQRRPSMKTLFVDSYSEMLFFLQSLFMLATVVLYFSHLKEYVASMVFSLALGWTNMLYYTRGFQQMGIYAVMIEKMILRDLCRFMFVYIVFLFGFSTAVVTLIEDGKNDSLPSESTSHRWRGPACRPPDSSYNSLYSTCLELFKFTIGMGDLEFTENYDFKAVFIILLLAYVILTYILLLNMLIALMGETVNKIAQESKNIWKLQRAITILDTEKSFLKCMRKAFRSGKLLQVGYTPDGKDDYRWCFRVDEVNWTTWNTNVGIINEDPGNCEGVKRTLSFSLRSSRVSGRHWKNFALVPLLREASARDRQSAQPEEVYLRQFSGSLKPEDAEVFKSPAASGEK
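TRPV1-expressing cells were cultured overnight at 35.5C and loaded with Fluo-8 calcium dye for 40 to 90 min at room temperature. After a 10 s baseline, compound was added and calcium influx was read kinetically for 3 min (ex 480/em 520 nm).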
Menin-MLL FL inh = menin-MLL binding inhibition, fluorescein peptide; Fluorescence polarization, fluorescein-MLL peptide displacement from menin; FP activity change, % at 61.4 µM; 290,000 tested, under 10 active; inconclusive = falling polarisation curve, or a change in total fluorescence; inactive = total fluorescence flat and polarisation flat or rising; no compound was filed as active; the % refers to the polarisation; negative = inhibition;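 further: % of control where 0% means no effect; inhibitors lower the polarisation; unlabelled MLL peptide was the positive control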
gsp ag = gsp mutant agonism; 340,000 tested, 0.13% active; Potency, µM (doses to about 76.9 µM), inactives show at the highest dose activation (cAMP increase), usual class: activators; gsp mutant cells, cAMP HTRF, 30 min; control for the full effect not named in the record; AID 624287; active = well fitted activation curve with a large enough effect; inconclusive = small, poorly fitted or top-dose-only effect, or another doubt; inactive = no such curve, though single readings can be large or run the other way; cell line not stated here;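 further: phosphodiesterase inhibitor Ro 20-1724 added with compounds to block cAMP breakdown; potency means the concentration at half of the fitted maximal effect; nearly all actives have a fitted effect of over 60% in size; about a fifth of the inactives were tested at one dose only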
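Cells stably selected in G418 were plated at 2000/well, grown 16-24 hr, then given compounds in DMSO with the PDE inhibitor […] (300 uM solution added) for 30 min at 37C; cAMP was read by HTRF.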
ClpP mod = qHTS Assay for Activators of ClpP. ATP-dependent Clp protease proteolytic subunit (Bacillus subtilis (strain 168)), P80244. purified B. subtilis ClpP, FRET peptide cleavage, 20 min. Potency, µM (top dose mostly 57.5 µM), inactives show at the top dose activity change, negative = active. 340,000 tested, 1.9% active; active = well fitted falling curve with a large enough effect; inconclusive = small, poorly fitted or top-dose-only effect; inactive = no such curve, though single readings can be large or run the other way; further: potency means the concentration at half of the fitted maximal effect; the source files actives as falling curves though it sought activators and does not explain the sign; nearly all actives have a fitted effect of over 65% in size; many hits overshoot -100%
Target sequence (P80244 whole entry, looked up): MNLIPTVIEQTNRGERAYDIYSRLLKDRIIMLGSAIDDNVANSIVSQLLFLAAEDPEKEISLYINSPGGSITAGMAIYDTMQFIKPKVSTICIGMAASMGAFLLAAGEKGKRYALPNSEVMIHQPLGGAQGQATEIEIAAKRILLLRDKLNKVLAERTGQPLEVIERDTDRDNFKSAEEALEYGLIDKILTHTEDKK
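Purified B. subtilis ClpP, 10 microg/mL final in Tris/HCl pH8 with KCl, BSA, glycerol and Tween-20, cleaved an Abz/nitrotyrosine-quenched decapeptide. Fluorescence (ex 320, em 430) was read at 0 and 20 min at room temperature. Delta was normalized to 5.8 microM ADEP and DMSO/no-enzyme controls.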
gsp antag = antagonizes gsp, the McCune-Albright syndrome mutation. gsp-mutant cells, cAMP HTRF, 30 min; control for the full effect not named in the record. Potency, µM (highest dose often 76.9 µM), for inactives: top-dose activity change, negative = inhibition, hits mostly inhibitors. 340,000 tested, 0.4% active. AID 624288; active = falling curve of any shape with a large fitted effect; inconclusive = falling curve, mostly with a smaller effect; inactive = flat or rising curve; cell line not stated here;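 further: intracellular cAMP measured with PDE inhibitor Ro 20-1724 present during compound exposure; potency means the concentration at half of the fitted maximal effect; on the % scale 0 is the no-effect control and ±100 the full control effect; nearly all actives have a fitted effect of over 65% in size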
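Measurement of cellular cAMP by homogeneous time-resolved fluorescence following a 30 min compound exposure at 37C. The PDE inhibitor […] was present throughout; the assay buffer was DPBS with 0.05% BSA and 0.005% Tween 20.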
D2 PAM = human D2 receptor positive allosteric modulation; potentiation, % (test concentration not listed); 360,000 tested, 0.23% active; DiscoveRx D2 beta-arrestin cells, luminescence, 90 min; 100% = 57 uM dopamine signal; AID 624464; P14416; active = potentiation of 50% or more; inconclusive = 30% to 50%; inactive = 30% or less;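 further: compound concentration not given in the record; tested on top of an EC20 dose of dopamine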
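D2 cells co-treated with compound plus 50 nM dopamine (EC20) for 90 min at 37 deg C to detect potentiation. Beta-arrestin recruitment was read as enzyme-fragment luminescence after 1 h at ambient temperature. Full response was set by 57 uM dopamine.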
The depositor's hits bear a star; [ ] = remark or other dose.

What do the screens show for `Cc1sc(NC(=O)c2ccccc2F)c(CN2CCCCC2C)c1C` (stereo not given)?
Sfp PPTase inh: -8%; TRPV1 PAM: -14; gsp ag: 2%; ClpP mod: 3.3%; gsp antag: -17%; D2 PAM: -14

Results for O=C(NCCN1CCN(C(=O)c2ccc(Br)cc2)CC1)c1ccc(Br)cc1 ?
Sfp PPTase inh: 8%; TRPV1 PAM: 3; Menin-MLL FL inh: -0.2; gsp ag: 0%; ClpP mod: 0.0%; gsp antag: -2%; D2 PAM: -23

How did C=C1CCN([C@@H](CC(C)C)C(=O)NCc2ccc(Cl)cc2)S(=O)(=O)c2ccccc21 do in these assays?
gsp ag: 6%; ClpP mod: -3.5%; gsp antag: -2%; D2 PAM: -5

What do the screens show for `CC(Sc1nc2c(c(=O)n(C)c(=O)n2C)n1Cc1cc2c(cc1Cl)OCO2)C(=O)O` (stereo not given)?
Sfp PPTase inh: -5%; TRPV1 PAM: 8; Menin-MLL FL inh: 3.4; gsp ag: 1%; ClpP mod: -0.1%; gsp antag: -11%; D2 PAM: -9

What do the screens show for `Cc1ccc(CN2CCN(C(=O)c3ccco3)CC2)cc1`?
Sfp PPTase inh: -3%; TRPV1 PAM: -41; Menin-MLL FL inh: 2.7; gsp ag: inconclusive; ClpP mod: 0.7%; gsp antag: -8%; D2 PAM: 56*

Results for COc1cccc(NC(=O)COC(=O)C2C3CC4OC(=O)C2C4C3)c1 (stereo not given) ?
Sfp PPTase inh: 18%; TRPV1 PAM: 2; Menin-MLL FL inh: 2.2; gsp ag: 0%[15.4 µM]; gsp antag: -9%; D2 PAM: 0

Results for CSc1nc2ccc(S(=O)(=O)N3CCCC3)cc2s1 ?
Sfp PPTase inh: 8%; TRPV1 PAM: 2; Menin-MLL FL inh: 1.1; gsp ag: -11%; ClpP mod: 0.9%; gsp antag: 4%; D2 PAM: -6

How did Cc1nc2nc[nH]n2c(=O)c1NS(=O)(=O)c1ccc(C(C)(C)C)cc1 do in these assays?
Sfp PPTase inh: 8%; TRPV1 PAM: -11; Menin-MLL FL inh: -6.5; gsp ag: 14%; gsp antag: 0%; D2 PAM: -2

How did COc1ccc(-c2nnc(NC(=O)C3CC3)o2)cc1 do in these assays?
Sfp PPTase inh: 4%; TRPV1 PAM: -11; Menin-MLL FL inh: -0.2; gsp ag: 18%; gsp antag: -2%; D2 PAM: -5

What do the screens show for `Cc1ccc2c(c1)N(Cc1ccccn1)C(=O)C(C)O2` (stereo not given)?
Sfp PPTase inh: -6%; TRPV1 PAM: -8; Menin-MLL FL inh: 0.6; gsp ag: -38%[inhibitor]; ClpP mod: -1.2%; gsp antag: 6%; D2 PAM: -8

What do the screens show for `CCC(C)n1cnc2c(c1=O)c1nc3ccccc3nc1n2Cc1ccccc1OC` (stereo not given)?
Sfp PPTase inh: 11%; TRPV1 PAM: -2; Menin-MLL FL inh: -0.6; gsp ag: inconclusive; ClpP mod: -6.5%; gsp antag: -10%; D2 PAM: 7

How did Cc1ccc(NC(=O)CSc2nnc3ccc(-c4ccncc4)nn23)cc1 do in these assays?
TRPV1 PAM: 4; gsp ag: 5%; ClpP mod: 19%; gsp antag: 8%; D2 PAM: -21

Results for COc1ccc(-c2nnn(-c3ccc(Cl)cc3Cl)c2N)cc1 ?
Sfp PPTase inh: 15%; TRPV1 PAM: 5; Menin-MLL FL inh: 1.1; gsp ag: -52%[inhibitor]; ClpP mod: 0.5%; gsp antag: 3%; D2 PAM: -3

What do the screens show for `CC(Sc1nc(-c2ccccc2)cc(C(F)(F)F)n1)C(=O)Nc1sc2c(c1C(N)=O)CCC2` (stereo not given)?
Sfp PPTase inh: inconclusive; TRPV1 PAM: 6; Menin-MLL FL inh: 4.9; gsp ag: 0%; ClpP mod: -1.1%; gsp antag: 4%; D2 PAM: -3

Results for CCOC(=O)CSc1nnc(Cc2cc(=O)[nH]c(=O)[nH]2)n1-c1cccc(OC)c1 ?
Sfp PPTase inh: -27%; TRPV1 PAM: 2; Menin-MLL FL inh: -6.4; gsp ag: -12%; ClpP mod: 1.3%; gsp antag: -5%; D2 PAM: -7

How did CC(C)n1cc(/C=N/Nc2ccc(C(=O)O)cc2)c2ccccc21 do in these assays?
Sfp PPTase inh: -9%; TRPV1 PAM: 9; Menin-MLL FL inh: 2.0; gsp ag: -13%[15.4 µM]; gsp antag: inconclusive; D2 PAM: 15

How did COc1ccc(C(=O)COC(=O)c2ccccn2)cc1OC do in these assays?
TRPV1 PAM: -2; gsp ag: -19%; ClpP mod: -3.9%; gsp antag: 9%; D2 PAM: -6

Results for COc1ccc(S(=O)(=O)N2CCCCCC2)cc1NC(=O)CN1C(=O)NC(C)(c2ccccc2)C1=O (stereo not given) ?
TRPV1 PAM: 18; gsp ag: 10%; ClpP mod: -0.7%; gsp antag: inconclusive; D2 PAM: 18

Results for COc1ccc(NC(=O)CSc2nc3ccccc3n2-c2ccccc2)c([N+](=O)[O-])c1 ?
Sfp PPTase inh: inconclusive; TRPV1 PAM: 4; Menin-MLL FL inh: 2.5; gsp ag: 7%; ClpP mod: 0.5%; gsp antag: -10%; D2 PAM: 2

Results for COc1ccc(NC(C)=[N+](C)CCNS(=O)(=O)c2ccc(Cl)cc2)cc1 ?
Sfp PPTase inh: 71µM*; TRPV1 PAM: 7; gsp ag: 22%; ClpP mod: -2.8%; gsp antag: 9%; D2 PAM: -27

How did COc1ccc(S(=O)(=O)N2CCC3(CC2)OCCN3S(=O)(=O)c2cccs2)cc1 do in these assays?
TRPV1 PAM: 0; gsp ag: -8%; ClpP mod: -0.5%; gsp antag: -1%; D2 PAM: 9

What do the screens show for `CCc1c(C)nc(SCC(=O)Nc2c(C)n(C)n(-c3ccccc3)c2=O)[nH]c1=O`?
Sfp PPTase inh: -1%; TRPV1 PAM: -7; Menin-MLL FL inh: 2.9; gsp ag: 4%; ClpP mod: -0.7%; gsp antag: 6%; D2 PAM: -2

Results for CN(CC(=O)N1CCc2ccccc21)S(=O)(=O)c1cccs1 ?
Sfp PPTase inh: 11%; TRPV1 PAM: 14; Menin-MLL FL inh: 0.3; gsp ag: -10%; ClpP mod: 1.1%; gsp antag: 1%; D2 PAM: -7

What do the screens show for `O=C(CCC(=O)NC1CCCCC1)Nc1cccnc1`?
Sfp PPTase inh: 20%; TRPV1 PAM: 1; Menin-MLL FL inh: 5.2; gsp ag: inconclusive; ClpP mod: -0.4%; gsp antag: -2%; D2 PAM: -5

How did COCC(=O)Nc1c(C(=O)Nc2ccc3c(c2)OCO3)oc2ccccc12 do in these assays?
Sfp PPTase inh: -23%; TRPV1 PAM: inconclusive; Menin-MLL FL inh: -9.0; gsp ag: 1%; ClpP mod: -3.9%; gsp antag: 4%; D2 PAM: -9

How did O=C(NCCCN1CCCC1=O)c1cccc(C(F)(F)F)c1 do in these assays?
Sfp PPTase inh: 24%; TRPV1 PAM: 23; Menin-MLL FL inh: 5.2; gsp ag: 6%; ClpP mod: -1.7%; gsp antag: -2%; D2 PAM: 0

Results for COc1ccc(Nc2c3ccccc3nc3ccccc23)cc1 ?
Sfp PPTase inh: -4%; TRPV1 PAM: -12; Menin-MLL FL inh: -1.3; gsp ag: 5%; gsp antag: -2%; D2 PAM: -14

Results for CCCN1C(=O)c2cc(C(=O)NC3CCCCCC3)ccc2C1O (stereo not given) ?
Sfp PPTase inh: 16%; TRPV1 PAM: 14; Menin-MLL FL inh: -0.2; gsp ag: -1%; ClpP mod: -1.9%; gsp antag: -6%; D2 PAM: -6

Results for CC(C)=CCN1CCNC(=O)C1CC(=O)NCc1nc(C)c(C)s1 (stereo not given) ?
Sfp PPTase inh: 8%; TRPV1 PAM: 10; Menin-MLL FL inh: -3.9; gsp ag: -15%; gsp antag: 13%; D2 PAM: -7

Results for CCOC(=O)c1c(NC(=S)Nc2ccc(C)cc2)sc2c1CCC2 ?
Sfp PPTase inh: inconclusive; TRPV1 PAM: 3; Menin-MLL FL inh: 5.5; gsp ag: 5%[15.4 µM]; ClpP mod: 3.0%; gsp antag: -22%; D2 PAM: -34

Results for Cc1c(C(=O)Nc2ccccc2)sc2ncn(CC(=O)N3CCCCC3)c(=O)c12 ?
Sfp PPTase inh: -5%; TRPV1 PAM: -3; Menin-MLL FL inh: 8.1; gsp ag: 0%; gsp antag: -13%; D2 PAM: -6

How did COc1ccc(Br)cc1/C=C/C(=O)NCC(=O)O do in these assays?
Sfp PPTase inh: 15%; TRPV1 PAM: -1; Menin-MLL FL inh: -0.5; gsp ag: -24%; ClpP mod: -7.7%; gsp antag: 13%; D2 PAM: -2

Results for Cn1c2ccccc2c(=O)n2c(=O)c3ccccc3cc12 ?
Sfp PPTase inh: 15%; TRPV1 PAM: 4; Menin-MLL FL inh: 5.2

Results for CC1(C)Cc2c(sc3nc(-c4cccs4)n(N)c(=O)c23)CO1 ?
Sfp PPTase inh: -15%; TRPV1 PAM: 26; Menin-MLL FL inh: 12; gsp ag: 7%; ClpP mod: -7.4%; gsp antag: 32µM*; D2 PAM: 5

What do the screens show for `O=C(/C=C/c1ccco1)NC(=S)Nc1ccc(C(=O)O)cc1`?
Sfp PPTase inh: 56µM*; TRPV1 PAM: -16; Menin-MLL FL inh: inconclusive; gsp ag: -21%; gsp antag: -29%; D2 PAM: -1

What do the screens show for `CCn1c(SCC(=O)NCc2cccs2)nnc1-c1cccs1`?
Sfp PPTase inh: 7%; TRPV1 PAM: -6; Menin-MLL FL inh: 0.5; gsp ag: 4%; ClpP mod: -1.4%; gsp antag: 2%; D2 PAM: -12

Results for C/C(=N\N1CCN(c2ccccc2)CC1)c1ccncc1 ?
Sfp PPTase inh: 27%; TRPV1 PAM: 2; Menin-MLL FL inh: -1.5; gsp ag: 4%[15.4 µM]; ClpP mod: -11%; gsp antag: 9%; D2 PAM: -20

Results for CCOC(=O)CSc1nc(C(C)(C)C)cc(C(F)(F)F)c1C#N ?
Sfp PPTase inh: 4%; TRPV1 PAM: 0; Menin-MLL FL inh: 1.6; gsp ag: inconclusive; ClpP mod: -9.0%; gsp antag: 22%; D2 PAM: -14

Bioassay records (PubChem BioAssay)
